# N370S GC mod = inhibits or activates N370S mutant glucocerebrosidase. N370S GC spleen homogenate, 4MU-glucoside fluorescence. Potency, µM (doses to about 59.4 µM), for the others: top-dose activity change, negative = inhibition, most hits filed as inhibitors. 330,000 tested, 0.092% active. AID 2101;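 note: 0% = full enzyme activity and -100% = no enzyme basal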
# FEN1 inh = inhibitors of human flap endonuclease 1; Recombinant FEN1 flap cleavage, fluorescence, 15 min; Potency, µM (series often up to 114 µM), without a hit: top-dose activity change, negative = inhibition, most hits filed as inhibitors; 390,000 tested, 0.35% active; AID 588795; note: nearly all actives have a fitted effect of over 65% in size
# Target sequence (P39748 whole entry, looked up): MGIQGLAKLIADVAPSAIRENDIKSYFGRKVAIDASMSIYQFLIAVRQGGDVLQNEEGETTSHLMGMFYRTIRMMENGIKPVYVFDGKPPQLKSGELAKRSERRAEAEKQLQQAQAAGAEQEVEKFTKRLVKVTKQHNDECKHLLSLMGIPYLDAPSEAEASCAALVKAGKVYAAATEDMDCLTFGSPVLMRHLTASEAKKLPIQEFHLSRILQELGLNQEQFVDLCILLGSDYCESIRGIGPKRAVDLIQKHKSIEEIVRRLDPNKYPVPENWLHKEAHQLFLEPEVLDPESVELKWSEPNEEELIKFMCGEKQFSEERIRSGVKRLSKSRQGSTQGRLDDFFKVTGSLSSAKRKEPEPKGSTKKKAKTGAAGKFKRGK
#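 Concentration–response screening of FEN1 (10 nM): 15 min compound preincubation at room temperature, reaction started with 50 nM substrate and read at 0 and 15 min. Corrected, normalized data were fitted by a four-parameter Hill equation.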
# * hit, by the source's call; u = inconclusive; x = no result given; & = joins results of further samples. Calls come from the whole dose curve; as a rule, active = well fitted curve in the direction sought with a large enough effect; inconclusive = small, poorly fitted or top-dose-only effect, or another doubt; inactive = no such curve, though single readings can be large; an effect the other way counts as inactive or inconclusive. Unless noted, % is set by controls: 0 for no effect and ±100 for the full control effect; potency is the fitted concentration of half-maximal effect. The list is partial, and most or all hits are left out here.
Compound	N370S GC mod	FEN1 inh
CC(C)N(C(=O)Cn1c(-c2ccccc2Cl)nc2ccccc21)c1ccccc1	u	-10%
CN1CCN(CCCN2c3ccccc3Sc3ccc(C(F)(F)F)cc32)CC1	u	-1%&-9%&-13%
COC(=O)CN1C(=S)N(c2ccc(OC)cc2)C(=O)/C1=C/c1ccc(N2CCOCC2)cc1	-14%	4%
CCOC(=O)c1ccc(NC(=O)CCc2ccc(CC)o2)cc1	1%	-4%
O=C(Nc1nnc(SCc2ccccc2Cl)s1)C1COc2ccccc2O1 (configuration not stated)	15%	-18%
COc1ccccc1CCN1CCCC(CN(C)C(=O)c2ccco2)C1 (configuration not stated)	-3%	20%
COc1ccc(C(C)=O)cc1COC(=O)c1ccc(N)c([N+](=O)[O-])c1	19%	-1%
Nc1cccc(-c2nc3ccc(N)cc3s2)c1	7%	-3%
O=C(Nc1ccccc1)c1cnc(N2CCCCC2)c2ccccc12	x	-1%
COc1cc(C(=O)NC(=S)Nc2ccc(NC(=O)c3ccco3)cc2)cc(OC)c1OC	6%	-3%

# Rewritten as labelled records: four of the compounds above.
Nc1cccc(-c2nc3ccc(N)cc3s2)c1
  N370S GC mod: 7%; FEN1 inh: -3%
COC(=O)CN1C(=S)N(c2ccc(OC)cc2)C(=O)/C1=C/c1ccc(N2CCOCC2)cc1
  N370S GC mod: -14%; FEN1 inh: 4%
CC(C)N(C(=O)Cn1c(-c2ccccc2Cl)nc2ccccc21)c1ccccc1
  N370S GC mod: u; FEN1 inh: -10%
COc1cc(C(=O)NC(=S)Nc2ccc(NC(=O)c3ccco3)cc2)cc(OC)c1OC
  N370S GC mod: 6%; FEN1 inh: -3%

# (list continues)
Compound	N370S GC mod	FEN1 inh
COc1cc(C)cc2oc(=O)c(CC(=O)NCc3cccc(Cl)c3)c(C)c12	x	-4%
COc1ccc(N(CC(=O)NC2CCCC2)C(=O)Cn2nnc(-c3ccc(C)o3)n2)cc1	-15%	0%
C[C@H](CO)N1C[C@H](C)[C@@H](CN(C)C(=O)NC2CCCCC2)Oc2ccc(NC(=O)CCC(F)(F)F)cc2C1=O	x	14%
Cc1nn(-c2ccccc2)c(OC(=O)c2ccc(F)cc2)c1S(=O)(=O)c1ccccc1	x	-1%
CCCn1c2ccccc2c2cnn(CC(=O)N(CCCOC)Cc3ccco3)c(=O)c21	x	4%
CC(=O)Nc1cccc(Oc2ncnc3scc(-c4ccc(C)cc4)c23)c1	8%	-22%
Cc1ccc(C(=O)Nc2ccccc2N2CCCC2)s1	x	-13%
CCCCC(=O)Nc1cc(C)c(NC(=O)c2ccco2)cn1	-1%	-1%
Brc1ccc(-c2csc(NC3=NCCCCC3)n2)cc1	-19%	-6%
COc1ccc2c(c1)CN(C)S(=O)(=O)c1ccccc1-2	x	-6%

# The listing continues:
Compound	N370S GC mod	FEN1 inh
CCC1(CC)C(=O)N(C)C(=O)NC1=NCc1ccccc1	-14%	1%
CCOc1ccc(/C=N/NC(=O)c2ccc(Cn3cc(Br)cn3)o2)cc1	2%	11%
COc1ccc(-c2cc(C(=O)N3CCN(c4ccccn4)CC3)c3ccccc3n2)cc1	-2%	u
N=c1c(C(=O)NC2CCCCC2)cc2c(=O)n3ccccc3nc2n1Cc1ccc(F)cc1	-4%	-2%
O=C(NCCc1c[nH]c2ccccc12)c1ccc(Br)o1	x	-4%
Cc1ccn2cc(-c3cccc(NC(=O)c4ccccc4)c3)nc2c1	2%	-17%
O=C1OC(c2ccccc2)C2(CCCC2)C(=O)C12CCCC2 (configuration not stated)	25%	5%
CCc1ccc(CNc2ccc(O)cc2)cc1	9%	-4%
COC(CN(C)C(=O)c1cn(C)c2ccc(S(=O)(=O)N(C)C3CCCCC3)cc2c1=O)OC	u	-18%
CCN(Cc1ccccc1)C(=O)C1CCN(C/C(C)=C/c2ccccc2)CC1	-28%	-5%

# (further entries)
Compound	N370S GC mod	FEN1 inh
CC1=Nc2cccc([N+](=O)[O-])c2NC(=O)C1	4%	-4%
CCCCCCNc1nc(Cl)nc(NC(C)(C)CO)n1	-7%	7%
CCC(C)NC(=O)C1CCCN1S(=O)(=O)c1ccc(Cl)cc1 (configuration not stated)	5%	4%
CSc1nc(-c2ccco2)cc(-c2ccccc2)c1C#N	5%	-1%
CN(CC(=O)N1CCCCCC1)S(=O)(=O)c1ccc(Br)s1	4%	9%
Cc1cc(NC(=O)C2CCCCC2)ncc1NC(=O)c1ccccn1	-8%	-1%
CN(Cc1ccccc1)C(=O)c1[nH]cnc1C(=O)NCc1ccccc1	x	5%
COc1ccc(-c2cc(-c3ccccc3)nc3ncnn23)cc1	u	14%
COc1cc2cc(c1Cl)N(C)C(=O)CC(OC(=O)C(C)N(C)C(C)=O)C1(C)OC1C(C)C1CC(O)(NC(=O)O1)C(OC)C=CC=C(C)C2 (configuration not stated)	x	11%
COc1cc(O)c(C(=O)O)c(CCc2ccccc2)c1	x	-6%

# (more compounds)
Compound	N370S GC mod	FEN1 inh
CCc1nnc(NC(=O)C2CCN(C(=O)c3ccco3)CC2)s1	-2%	2%
COCc1cc(C)n(CC(=O)Nc2c(C)cccc2C)c(=O)c1C#N	-4%	-10%
COc1ccc(CNC(=O)CS(=O)(=O)Cc2nc(-c3ccc(OC)cc3)oc2C)cc1	-13%	-13%
O=C(CCC(=O)N(CC(=O)NC1CCCCC1)c1ccc(F)cc1)Nc1ccccn1	0%	-4%
O=C(NCCN1C(=O)CCC1=O)c1ccncc1	0%	32%
NCC(O)(CS(=O)(=O)O)c1ccc(Cl)cc1 (configuration not stated)	2%	x
O=C(Cn1cnc2ccccc2c1=O)NCCCN1CCCC1=O	x	12%
CC12CC(c3ccccc3O1)N(C(=O)c1ccco1)C(=S)N2c1ccccc1 (configuration not stated)	20%	-2%
O=C(N/N=C/c1ccco1)C12CC3CC(CC(C3)C1)C2	13%	12%
CC(C)Cc1nnc(NC(=O)CSc2nc(O)c(Cc3ccccc3)c(=O)[nH]2)s1	27%	2%

# New compounds follow.
Compound	N370S GC mod	FEN1 inh
COc1cccc(N2CCN(C(=O)c3nc4nc(C)cc(C)n4n3)CC2)c1	-3%	-5%
NC(=O)C1CCN(C(=O)C2CCN(S(=O)(=O)c3ccccc3)CC2)CC1	0%	22%
CCS(=O)(=O)N1CCN(c2ccc([N+](=O)[O-])c(NC(C)c3ccccc3)c2)CC1 (configuration not stated)	x	4%
CCCc1ccc(OCc2ccc(C(=O)O)o2)c(OC)c1	15%	8%
COCC(=O)Nc1ccc(F)cc1	-13%	5%
COc1cccc2sc(NC(=O)c3ccc(S(=O)(=O)N4CCC(C)CC4)cc3)nc12	x	-16%
CCOc1cc(C(=O)Nc2ccncc2)cc(OCC)c1OCC	6%	-1%
CSc1nc2ccsc2c(=O)n1-c1ccccc1	11%	-19%
O=C(NCc1ccccn1)c1cccc(S(=O)(=O)Nc2ccc(SC(F)F)cc2)c1	-6%	-13%
N=c1c2c(ncn1Cc1ccco1)Oc1ccc3ccccc3c1C2c1ccccc1 (configuration not stated)	12%	3%

# More structures follow:
Compound	N370S GC mod	FEN1 inh
COc1cc(S(=O)(=O)N(Cc2ccccc2)CC2CCCO2)ccc1-n1cnnn1 (configuration not stated)	-20%	-7%
Cc1nn(C)c2c1c(C(F)(F)F)cc(=O)n2C(C)C(=O)NCc1ccccc1 (configuration not stated)	x	-5%
COc1ccc(Oc2coc3cc(O)ccc3c2=O)cc1	u	16%
Cc1ccc(S(=O)(=O)/N=C/N(C)C)cc1	-4%	-5%
O=C1CCCN1c1cc(Cl)ccc1Cl	4%	-9%
COCCN(C(=O)COC(=O)CCC1CCCC1)c1c(N)n(Cc2ccccc2)c(=O)[nH]c1=O	1%	-4%
N#C/C(=C\c1cccnc1)c1nc2c(s1)CCCC2	10%	-11%
CCOC(=O)c1nc(-c2ccc(OC)c(OC)c2)cnc1C#N	-8%	3%
CC(Cc1n[nH]c(=S)o1)c1ccccc1 (configuration not stated)	5%	-18%
COc1ccc(OC)c(-c2csc(NC(=O)Cc3cc(OC)c(OC)c(OC)c3)n2)c1	-1%	9%

# (continued)
Compound	N370S GC mod	FEN1 inh
CCOc1ccc(CCNC(=O)C2=C(C)C(=O)OC23CCCCC3)cc1OCC	2%	3%
CSc1nnc(C)c(/C=C/Nc2ccc(F)cc2F)n1	-12%	-18%
C=C(CC)C(=O)c1ccc(OCC(=O)O)c(Cl)c1Cl	10%	-14%&6%
COc1ccc(OC)c(NC(=O)Cc2c(C)n(C(=O)c3ccc(Cl)cc3)c3ccc(OC)cc23)c1	x	-13%
C=CCOC(=O)C1=C(C)NC(=O)NC1c1cc(Cl)cc(Cl)c1OC (configuration not stated)	u	-3%
CN(CC(=O)Nc1ccccc1Cl)C(=O)CSc1nc2ccccc2s1	15%	-2%
Cc1ccc(Nc2c(-c3ccc(C)o3)nc3cnccn23)cc1	0%	-12%&-19%
CCCCc1cc(=O)oc2cc(C)cc(OCC(=O)NCCN3CCOCC3)c12	2%	-17%
CCOC(=O)CC(NC(=O)Cn1nnc(-c2ccccc2Cl)n1)c1ccc(OC)cc1 (configuration not stated)	-7%	-15%&7%
O=C(NCc1ccccc1Cl)c1ccc2nc(Cc3ccccc3)oc2c1	x	15%

# Carrying on.
Compound	N370S GC mod	FEN1 inh
COc1ccc([N+](=O)[O-])cc1NC(=O)CCc1ccccc1	6%	0%
CCN(CC(O)CON=C1c2ccccc2-c2ccccc21)S(=O)(=O)c1ccc(C)cc1 (configuration not stated)	2%	-20%
Nc1nnc(SCCOc2ccc(Br)cc2)s1	-8%	9%
CCN(CC)c1ccc(-c2c(C#N)c(N)nc(OC)c2C#N)cc1	8%	0%
COc1nccc(C(F)(F)F)c1C(=O)NC(=O)Nc1c(C)cccc1C	20%	-5%
CCN1CCc2nc(NC(=O)c3ccccc3)sc2C1	-15%	-3%
Cn1c(=O)c2cnc(-c3ccc(C(F)(F)F)cc3)nc2n(C)c1=O	2%	18%
O=C(Nc1ccc(NC(=O)c2ccco2)nc1)c1cccnc1	2%	-9%
Cc1ccc(NNS(=O)(=O)c2ccc(C)cc2)cc1	7%	1%
CCOC(=O)c1cc2c(=O)n3ccccc3nc2n(CC(C)C)c1=NC(=O)c1ccco1	13%	9%

# (cont.)
Compound	N370S GC mod	FEN1 inh
CCOC(=O)CNC(=O)N1CCCC(C(=O)c2cccc(Cl)c2)C1 (configuration not stated)	26%	20%
O=S1(=O)N=C(N(CCO)/N=C/C=C/c2ccccc2)c2ccccc21	17%	-6%
COc1cccc(-c2cc(=O)c3cc(NC(=O)c4ccc(Cl)cc4)ccc3[nH]2)c1	-5%&1%	17%
Cc1ccc(C2C(C(=O)c3ccco3)=C(O)C(=O)N2c2ncccn2)cc1 (configuration not stated)	-6%	-10%
O=S(=O)(Nc1ccc(O)c(Sc2nc3ccccc3s2)c1)c1cccc2ccccc12	3%	-19%
CCOC(=O)N1CCN(C(=O)c2cccc(S(=O)(=O)Nc3ccccc3Cl)c2)CC1	x	10%
COc1ccc(OCC(=O)N2CCN(C(=O)c3cccc(F)c3)CC2)cc1	23%	-1%
Cc1ccc2nc(N(CCCN(C)C)C(=O)c3ccc4c(c3)CCCC4)sc2c1	-19%	-12%
COc1ccc(N2C(=O)C3CCCN3C2c2ccccc2F)cc1 (configuration not stated)	7%	-16%
Cc1ccc2nc(SCC(=O)NCC3CCCO3)c(C#N)cc2c1 (configuration not stated)	10%	0%

# (listing goes on)
Compound	N370S GC mod	FEN1 inh
Cc1ccc(NC(=O)C2CCN(S(=O)(=O)c3c(C)noc3/C=C/c3cccs3)CC2)cc1F	x	11%
CCOC(=O)Nc1nnc(Cc2ccc(Cl)c(Cl)c2)s1	2%	5%
O=C(CCCCCCC(=O)Nc1ccccc1)NO	x	-5%
N#Cc1c(N)nc2c(c1-c1cccc(O)c1)CCCCCC2	u	-17%
CCCCNC(=O)CC1SC(=NCC)N(CC)C1=O (configuration not stated)	3%	-1%
O=C(c1ccco1)N1CCN(S(=O)(=O)c2cccc(C(F)(F)F)c2)CC1	-10%	-1%
Cc1nnc(N2CCc3ccccc3C2)[nH]c1=O	2%	10%
Cc1cccc(-n2c(C)nc3sccc3c2=O)c1	6%	-3%
COc1ccc(/C=C(\NC(=O)/C=C/c2ccco2)C(=O)NCCc2nc3ccccc3[nH]2)cc1	-10%	4%
O=C1C(c2[nH]c3ccccc3c2O)=Nc2ccccc21	-11%&-4%	x

# (further entries)
Compound	N370S GC mod	FEN1 inh
N#CC1=C(SCc2ccccc2)NC(=O)C(C#N)C12CCCC2 (configuration not stated)	-8%	-1%
COc1ccc(CNC(=O)Cn2c(=O)n(CC(=O)N3CCCCC3)c(=O)c3sccc32)cc1	4%	-12%
Cc1ccc(Cn2ccc(NC(=O)c3cc(-c4ccc5c(c4)OCO5)on3)n2)cc1	4%	9%
Cc1ccc(NC(=O)N2CCCCC2)cc1NC(=O)N1CCCCC1	4%	3%
O=C(O)CCS(=O)(=O)Cc1ccccc1Cl	6%	4%
S=C1NCCc2ccccc2C1c1ccccc1 (configuration not stated)	8%	1%
COC(=O)C(CC(=O)c1ccc(Cl)cc1)c1ccc(C(C)C)cc1 (configuration not stated)	0%	9%
Cn1c2ccccc2c2cnn(CC(=O)Nc3ccc(F)cc3F)c(=O)c21	-5%	-10%
Cc1[nH]c(=S)c(C#N)c(-c2ccco2)c1C(=O)N(C)C	6%	0%
O=C(N/N=C/c1ccc(Sc2ccccn2)o1)c1cccc([N+](=O)[O-])c1	3%	-21%
COc1ccc(S(=O)(=O)N/N=C\c2ccccc2F)cc1	-2%	18%

# Compound activity: PubChem BioAssay, National Center for Advancing Translational Sciences (NCATS)
